Screening data (PubChem BioAssay)
NS1 inh: inhibitors of influenza NS1 protein function | S. cerevisiae slowed by influenza A NS1, growth recovery by OD600 | Potency, µM (series often up to 46.1 µM), for inactives: at the top dose activity, positive = more growth | 270,000 tested, 0.4% active; note: actives are rising curves; nearly all actives have a fitted effect of over 50% in size
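Compounds were scored for reversing the slow growth caused by influenza A NS1 in S. cerevisiae, measured by optical density at 600 nm. Assay medium contained 2% galactose at pH 6.0; NS1-free yeast of the same strain were the positive control.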
RE007 growth inh: less growth of the S. pombe RE007 Vpr strain; AID 651644; S. pombe RE007 Vpr strain, BacTiter-Glo ATP luminescence, 24 h; control for the full effect not named in the record; Potency, µM (highest dose often 92.2 µM), without a hit: at the top dose activity change, negative = less growth; 360,000 tested, 0.21% active; active = well fitted falling curve with a large enough effect; inconclusive = small, poorly fitted or top-dose-only effect; inactive = no such curve, though single readings can be large or run the other way;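 note: % is set by controls: 0 for no effect and ±100 for the full control effect; nearly all actives have a fitted effect of over 50% in size; the assay follows cell death caused by Vpr and the record does not say whether a fall means rescue or toxicity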
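Fission yeast RE007 carrying one integrated HIV-1 vpr copy, seeded at OD 0.01 in PMG+AL medium with 23 nL pinned compound. Grown 24 h at 30 degrees; viability read by BacTiter-Glo luminescence after 5 min.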
Marburg entry inh: Marburg virus entry inhibition | 300,000 tested, 1.8% active | AID 540276 | Marburg virus pseudotyped entry inhibition, cell reporter; control for the full effect not named in the record; about a third of the inactives were read at about 46 µM | Potency, µM (series often up to 37.8 µM), for the others: top-dose activity change, negative = inhibition, most hits filed as inhibitors; active = well fitted inhibition curve with a large enough effect; inconclusive = small, poorly fitted or top-dose-only effect, or effect the other way; inactive = flat fitted curve, though single readings scatter; tested in HEK293 cells; about a fifth of its hits are not listed in these tables; note: % is set by controls: 0 for no effect and ±100 for the full control effect; luciferase read-out
Lassa entry inh: inhibitors of Lassa virus binding or cell entry | Lassa virus pseudotype entry inhibition, cell reporter; control for the full effect not named in the record | Potency, µM (top dose mostly 37.9 µM), for inactives: at the highest dose activity change, negative = inhibition, hits mostly inhibitors | 300,000 tested, 1.2% active | AID 540256; active means well fitted inhibition curve with a large enough effect; inconclusive means small, poorly fitted or top-dose-only effect, or effect the other way; inactive means flat fitted curve, though single readings scatter; tested in HEK293 cells; note: % is set by controls: 0 for no effect and ±100 for the full control effect; nearly all actives have a fitted effect of over 50% in size; luciferase read-out
SARS PLpro yeast: blocks SARS-CoV papain-like protease in a yeast assay | S. cerevisiae expressing SARS-CoV PLpro, growth rescue; control for the full effect not named in the record | 330,000 tested, 0.19% active | Potency, µM (titrated, usually from 32.9 µM), for the others: top-dose activity, positive = growth rescue; note: 0% is about no effect; nearly all actives have a fitted effect of over 55% in size; growth read by luminescence after 48 h
Cruzain Triton: inhibitors of Trypanosoma cruzi cruzain with detergent; P25779; purified cruzain, Z-FR-AMC fluorescence, 0.01% Triton; Potency, µM, for inactives: max response, negative = inhibition, usual class: inhibitors; 200,000 tested, 0.43% active; AID 1478; active = well fitted curve in the direction sought with a large enough effect; inconclusive = small, poorly fitted or top-dose-only effect, or another doubt; inactive = no such curve, though single readings can be large; an effect the other way counts as inactive or inconclusive;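 note: plate controls were neutral wells for no effect and buffer without enzyme for full effect; nearly all actives have a fitted effect of over 40% in size; top concentration of the series not given in the record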
Target sequence (P25779 123-467 limits assumed): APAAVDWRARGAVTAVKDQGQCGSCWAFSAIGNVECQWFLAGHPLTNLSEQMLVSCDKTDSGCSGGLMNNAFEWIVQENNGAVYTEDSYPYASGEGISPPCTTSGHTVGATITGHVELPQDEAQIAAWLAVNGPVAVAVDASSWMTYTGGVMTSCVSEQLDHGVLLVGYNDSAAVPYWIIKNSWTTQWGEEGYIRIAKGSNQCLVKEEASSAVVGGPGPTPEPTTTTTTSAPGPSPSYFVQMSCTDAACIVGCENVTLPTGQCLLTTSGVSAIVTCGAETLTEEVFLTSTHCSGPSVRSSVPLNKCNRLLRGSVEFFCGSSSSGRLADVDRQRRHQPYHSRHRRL
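Read-out: AMC fluorescence (360 nm excitation, 450 nm emission), four reads over 2 min, first-to-third difference used. Conditions: cruzain 1.5 nM, Z-FR-AMC 2 uM, pH 5.5 acetate, 5 mM DTT, 0.01% Triton X-100.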
2A StopGo: FMDV 2A StopGo reporter, luciferase signal; 410,000 tested, 1.2% active; human cells with a luciferase reporter of 2A StopGo recoding; control for the full effect not named in the record; Potency, µM (doses to about 57.9 µM), for the others: at the highest dose signal change, negative = less light; active = well fitted falling curve with a large enough effect; inconclusive = small, poorly fitted or top-dose-only effect; inactive = no such curve, though single readings can be large or run the other way; tested in HEK293T cells; note: % is set by controls: 0 for no effect and ±100 for the full control effect; nearly all actives have a fitted effect of over 45% in size; luciferase light after 4 h
Cruzain inh noDet: blocks cruzain activity in detergent-free assay; P25779; purified cruzain, Z-FR-AMC fluorescence, no detergent; Potency, µM, for inactives: max response, negative = inhibition, usual class: inhibitors; 200,000 tested, 2.3% active; active = well fitted curve in the direction sought with a large enough effect; inconclusive = small, poorly fitted or top-dose-only effect, or another doubt; inactive = no such curve, though single readings can be large; an effect the other way counts as inactive or inconclusive;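 note: plate controls were enzyme without inhibitor for no effect and buffer without enzyme for full effect; nearly all actives have a fitted effect of over 40% in size; top concentration of the series not given in the record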
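Purified cruzain at 1.5 nM, pre-incubated 15 min with compound at room temperature in 100 mM sodium acetate pH 5.5, 5 mM DTT, 0.00005% Triton X-100. Reaction started with 2 uM Z-FR-AMC; AMC fluorescence increase over 60 s gives rate.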
Starred values were filed as active, the others as inactive; u = inconclusive; x = no result given; & = joins results of further samples; [ ] = remark or other dose. Unless noted, calls come from the whole dose curve; as a rule, active means well fitted rising curve with a large enough effect; inconclusive means small, poorly fitted or top-dose-only effect; inactive means no such curve, though single readings can be large or run the other way. Potency is the fitted concentration of half-maximal effect.

structure,Lassa entry inh,Cruzain Triton,RE007 growth inh,2A StopGo,NS1 inh,SARS PLpro yeast,Marburg entry inh,Cruzain inh noDet
CCOc1ccccc1N1CC(C(=O)Nc2ccc3c(c2)OCCO3)CC1=O (stereo not given),20%,x,19%,25%,0%,3%,u,x
COC(OC)c1ccnc(-c2ccc(OC(C)=O)cc2)n1,14%[46.1 µM],x,13%,11%,x,4%,13%[46.1 µM],x
CC1CCCN(Cc2nc(Cc3ccccc3Cl)no2)C1 (stereo not given),6%[46.1 µM],x,-18%,8%,3%,-1%,7%[46.1 µM],x
O=C(NCc1n[nH]c(=S)n1-c1ccccc1)c1cccs1,0%,x,7%,-24%,x,6%,-15%[14.2 µM],x
O=C(CCNC(=O)c1ccc(Br)cc1)NCc1ccncc1,u,x,18%,-5%,x,2%,-14%,x
COC(=O)c1cc(OC)c(OC)cc1NC(=O)c1cnccn1,x,-2.3%,x,x,u,2%,2%,-9%
Cc1cc(C(=O)CCl)c(C)n1CCc1ccccc1,u,x,-10%,28µM*,x,9%,u,x
COCCn1nnnc1C(c1cc2cccc(C)c2[nH]c1=O)N1CCN(c2ccccc2F)CC1 (stereo not given),-17%,-3.7%,-17%,-8%,-9%,3%,1%&-25%,u
Cc1ccccc1-n1c(C)nnc1SCc1cc(=O)oc2ccc3ccccc3c12,-16%,-3.0%,7%,-30%,-23%,-1%,2%,-8%
COc1ccccc1N1CCN(C(=O)c2cc(S(=O)(=O)N3CCC(C)CC3)cn2C)CC1,12%[46.1 µM],-2.4%,x,-22%,x,x,x,u
O=C(CCCc1nc(-c2ccc(Cl)cc2)no1)NCc1ccco1,18%[46.1 µM],-1.5%,x,-23%,x,x,-4%[46.1 µM],-22%
O=C(COC(=O)c1ccc(O)cc1O)Nc1ncc(Cl)cc1Cl,-6%[46.1 µM],x,19%,-1%,x,-7%,29%,x
Cc1cc(C)nc(NC(=S)Nc2cccc(Cl)c2Cl)c1,x,x,3%,3%,-2%,0%,x,x
Cc1ccccc1Cn1c2ccccc2c2cnn(CC(=O)NCc3ccco3)c(=O)c21,x,x,8%,-5%,7%,1%,x,x
COc1ccc([N+](=O)[O-])cc1NC(=O)COC(=O)/C=C/c1ccco1,u,-5.5%,5%,-18%,8%,11%,u,-20%
Cn1c(=O)c2c(ncn2CC(=O)OCC(=O)c2ccc(Cl)cc2)n(C)c1=O,16%,x,-4%,-24%,x,1%,u,x
CC(C)N1CCc2c(sc(NC(=O)c3ccc4ccccc4c3)c2C(N)=O)C1,x,x,-11%,-4%,-7%,0%,x,x
O=C(COC(=O)C1(c2ccccc2)CC1)NNC(=O)c1ccccc1F,7%,x,8%,-1%,x,1%,0%,x
COc1cc(/C=N/NC(=O)C(N)=O)cc(OC)c1O,18%,x,9%,-10%,0%,0%,3%[46.1 µM],x
O=C(CSc1nnc(-c2ccco2)n1-c1ccccc1)N1CCN(C(=O)c2ccco2)CC1,12%,2.1%,1%,-7%,-5%,5%,-2%,-4%
O=C(CSc1ccc2ccccc2n1)NCCC1=CCCCC1,u,-8.0%,4%,-15%,2%,1%,u,3%
CCn1ccc(C(=O)Oc2ccc(C(C)C)cc2)n1,4%,-4.0%,17%,x,-28%,-7%,12%,18%
COC(=O)c1ccc(NC(=O)Cn2ccn3nc(-c4ccc(OC)cc4)cc3c2=O)cc1,3%[46.1 µM],0.9%,x,30%[activator],x,x,x,u
CCc1c(C)nc(N)n2c(SCC(=O)N3CCCC(C)C3)nnc12 (stereo not given),-6%,2.3%,-7%,-13%,-3%,0%,15%,-13%
CCOC(=O)Cn1c(=O)c(-c2ccccc2NCc2ccccc2)nc2ccccc21,0%,x,0%,6%,x,x,9%,x
CN(CC(=O)NCc1ccco1)CC(=O)Nc1ccc(F)c(F)c1F,10%[46.1 µM],x,-11%,1%,x,x,2%[46.1 µM],x
COC(=O)c1[nH]c(C)c(/C(O)=C2\C(=O)C(=O)N(CCN(C)C)C2c2cccs2)c1C (stereo not given),-7%,-3.6%,8%,16%,-6%,3%,5%,-5%
COCCCNC(=O)Cn1c(=O)n(-c2ccccc2)c(=O)c2c1c1cc(OC)ccc1n2C,2%[46.1 µM],0.1%,x,-15%,x,x,x,8%
CCOC(=O)Cn1c(=O)cc(C)c2cccc(C)c21,x,x,2%,0%,2%,0%,x,x
CCOC(=O)CNC(=O)CSc1nc(Cc2cccs2)nc2ccccc12,19%,-4.4%,-22%,x,12%,2%,3%,-3%
COc1ccc(C2C(C(=O)N3CCCCC3)c3ccccc3C(=O)N2C)cc1 (stereo not given),u,-2.0%,12%,7%,-8%,4%,u,-8%
Cc1ccc(Nc2cc(C)nn2-c2nc(C)cc(=O)[nH]2)cc1,1.6µM*,3.5%,u,3.5µM*,-151%,-28%,2.8µM*,u

Exported as labelled records: entries from further up
canonical_smiles: COc1ccc(C2C(C(=O)N3CCCCC3)c3ccccc3C(=O)N2C)cc1 (stereo not given)
  Lassa entry inh: u | Cruzain Triton: -2.0% | RE007 growth inh: 12% | 2A StopGo: 7% | NS1 inh: -8% | SARS PLpro yeast: 4% | Marburg entry inh: u | Cruzain inh noDet: -8%
canonical_smiles: Cc1ccc(Nc2cc(C)nn2-c2nc(C)cc(=O)[nH]2)cc1
  Lassa entry inh: 1.6µM* | Cruzain Triton: 3.5% | RE007 growth inh: u | 2A StopGo: 3.5µM* | NS1 inh: -151% | SARS PLpro yeast: -28% | Marburg entry inh: 2.8µM* | Cruzain inh noDet: u

(continued)
structure,Lassa entry inh,Cruzain Triton,RE007 growth inh,2A StopGo,NS1 inh,SARS PLpro yeast,Marburg entry inh,Cruzain inh noDet
Cc1noc(C)c1S(=O)(=O)Nc1ccc(C(=O)O)cc1,17%,7.7%,1%,4%,8%,-9%,u,-3%
CC(=O)c1cccc(-n2c(=O)c3c4c(sc3n(CC(=O)c3ccc(Cl)cc3)c2=O)CN(C(C)=O)CC4)c1,x,-1.6%,x,4%,x,x,u,-3%
O=C(Nc1cccs1)Nc1c(F)cc(F)cc1Br,1%,-3.6%,4%,-9%,7%,-15%,4%,-8%
C=C(C)CNC(=O)c1ccc(OC2CCN(S(=O)(=O)N(C)C)CC2)cc1,-1%,x,1%,37%[activator],-4%,-2%,-1%[46.1 µM],x
COC(=O)c1[nH]c2ccc(C)cc2c1NC(=O)C1=COCCO1,12%,3.4%,6%,-23%,-14%,-17%,-3%,-1%
COC(=O)c1cccc(Nc2c(-c3ccc(SC)cc3)nc3nc[nH]n23)c1,-19%[46.1 µM],-6.5%,x,53%[activator],x,x,x,6%
COC(=O)c1ccn(Cc2ccccc2Cl)n1,5%,x,16%,60%[activator],x,0%,-29%[46.1 µM],x
CCN1C(=O)c2ccccc2Sc2ccc(C(=O)NCCN3CCOCC3)cc21,-20%,2.2%,-1%,-16%,u,19%,-27%,0%
Cc1ccc(NC(=O)COC(=O)CSC(=S)N2CCOCC2)cc1C,8%,x,-6%,4%,x,1%,9%[46.1 µM],x
Cc1sc2ncn(CC(=O)N3CCC4(CC3)OCCO4)c(=O)c2c1C,11%,0.0%,10%,-13%,-14%,-1%,9%,-3%
O=C(c1cc(S(=O)(=O)N2CCCCC2)ccc1N1CCOCC1)N1CCN(Cc2ccccc2)CC1,u,x,-2%,-10%,-7%,0%,7%[46.1 µM],x
COc1cccc(C(c2ccccc2)N2C3CCC2CN(S(=O)(=O)c2ccc(F)cc2)CC3)c1 (stereo not given),u,x,-19%,-30%,x,-6%,u,x
CN1C(=O)c2oc3ccccc3c(=O)c2C1c1ccncc1 (stereo not given),u,-0.7%,-20%,-6%,-13%,-1%,9%,-1%
CC(C)CC(N)c1cn([C@@H](CCC(=O)O)C(=O)N2CCNCC2)nn1 (stereo not given in full),x,x,0%,-5%,3%,0%,x,x
CCN(CC)C(=O)c1ccc(-c2nnc(Nc3ccc(C(=O)NC)cc3)c3ccccc23)cc1,x,x,-5%,u,-35%,-1%,x,x
CCc1nn2c(=O)cc(COC(=O)c3ccccc3NC(=O)c3cccs3)nc2s1,1%[46.1 µM],1.2%,x,-22%,x,x,x,-13%
Cn1cccc1/C=C1\SC(=Nc2ccccc2)NC1=O,x,x,-2%,60%[activator],-10%,-1%,x,x
Cc1ccc(NC(=O)CSc2n[nH]c(-c3ccco3)n2)c(C)c1,4%,x,12%,11%,2%,2%,u,x
CCOc1ccc(NC(=O)Nc2ccc(NC(C)=O)cc2)cc1,12%,x,-5%,9%,x,-1%,-27%[46.1 µM],x
Cc1ccccc1NC(=O)COC(=O)C1(C)CC1(Cl)Cl (stereo not given),19%,x,-3%,27%,3%,-4%,-2%[46.1 µM],x
CNc1ncc(C(=O)c2ccc(Br)cc2)s1,u,x,-12%,34%[activator],-1%,1%,u,x
COc1cccc(C(=O)Nc2nnc(CCS(=O)(=O)c3ccc(C)cc3)s2)c1,-5%,x,-9%,6%,3%,2%,u,x
Cc1cc(NC(=O)NC(C(F)(F)F)C(F)(F)F)no1,16%[46.1 µM],x,-8%,-8%,6%,0%,4%[46.1 µM],x
O=C(c1cccc(NS(=O)(=O)c2cccc(F)c2)c1)N1CCCC1,x,x,0%,5%,8%,-6%,x,x
Cc1ccc(NC(=S)Nc2cc(C(=O)O)ccc2N2CC3CC(C2)c2cccc(=O)n2C3)cc1C (stereo not given),u,x,10%,-4%,x,u,u,x
COC(=O)Cc1ccc(NC(=S)NCc2ccc(F)cc2)cc1,-4%,-2.9%,-1%,17%,-10%,-5%,18%,-16%
